# Assay outcomes (PubChem)
# INS promoter inh: TRM-6 insulin promoter activity inhibition; TRM-6 cells (human fetal islet line), insulin promoter-eGFP reporter, imaging; reporter expression induced with tamoxifen; inhibition, % at 2 µM; actives 0.9% (n = 130,000);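 active = inhibition above the mean plus 3 SD, with well images judged a real hit on visual review, cut at about 60% in these data, passing the limit was not always enough; inconclusive = inhibition over the cutoff but images rejected on review; inactive = inhibition not above the cutoff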
# PKD1 inh: inhibitors of human PKD1 kinase. Q15139. PKD1 kinase fluorescence polarization assay. inhibition, %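 (about 10 µM by stock and volumes)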. actives 0.056% (n = 200,000). AID 797;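 active = inhibition of 50% or more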;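 also: controls were vehicle for no effect and a reference inhibitor for full effect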
# Target sequence (Q15139 whole entry, looked up): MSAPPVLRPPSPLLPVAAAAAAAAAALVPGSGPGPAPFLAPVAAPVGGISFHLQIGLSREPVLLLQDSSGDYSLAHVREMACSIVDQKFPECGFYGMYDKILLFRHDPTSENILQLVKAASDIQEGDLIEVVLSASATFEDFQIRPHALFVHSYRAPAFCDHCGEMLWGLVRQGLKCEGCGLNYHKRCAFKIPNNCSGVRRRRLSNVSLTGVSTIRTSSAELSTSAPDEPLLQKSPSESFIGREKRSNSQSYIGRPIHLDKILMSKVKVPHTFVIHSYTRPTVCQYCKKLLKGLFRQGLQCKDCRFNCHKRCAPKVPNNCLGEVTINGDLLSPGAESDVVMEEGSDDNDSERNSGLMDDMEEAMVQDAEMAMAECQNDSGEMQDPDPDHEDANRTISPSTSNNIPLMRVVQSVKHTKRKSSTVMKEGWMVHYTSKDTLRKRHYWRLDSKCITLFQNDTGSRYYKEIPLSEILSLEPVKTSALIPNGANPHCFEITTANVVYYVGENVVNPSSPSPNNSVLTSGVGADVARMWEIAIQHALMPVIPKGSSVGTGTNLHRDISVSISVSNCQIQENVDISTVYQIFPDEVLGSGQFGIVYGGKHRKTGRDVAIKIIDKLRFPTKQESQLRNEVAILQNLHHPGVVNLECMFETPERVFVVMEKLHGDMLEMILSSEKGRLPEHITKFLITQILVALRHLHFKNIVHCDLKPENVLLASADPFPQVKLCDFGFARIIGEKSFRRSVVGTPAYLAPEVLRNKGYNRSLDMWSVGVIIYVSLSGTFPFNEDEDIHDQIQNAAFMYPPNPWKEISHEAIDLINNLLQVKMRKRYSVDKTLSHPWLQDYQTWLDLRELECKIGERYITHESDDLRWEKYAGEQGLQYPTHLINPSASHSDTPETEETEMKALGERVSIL
# RGS16-Gao HTS: regulators of human RGS16-Galphao interaction. O15492+P09471. bead-based flow cytometry RGS16-Galphao binding, fluorescence; actives lie on both sides. binding response (% of control), % at 10 µM. actives 0.38% (n = 220,000). AID 1441;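 active = below 25% or above 175%, edge rows of some plates excepted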;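 also: Galphao activated by GDP with aluminum fluoride before binding; 100% = wells without compound and 0% = beads without RGS; some results beyond the cut were filed as inactive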
# HSV augment: HSV replication enhancement; maximum fold increase; HSV replication augmentation in cells, fold increase; actives 0.005% (n = 220,000);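 active = peak rise of 1.5-fold or more in the series; inconclusive = self-fluorescent or not available for retest; tested in PC3 cells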;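 also: first round at 10 µM; read as green reporter fluorescence; hits show the peak of a series up to 25 µM; 1 = signal of infected wells without compound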
# GALR2 ag: activates the human galanin receptor 2; AID 803; O43603; actives 0.48% (n = 140,000); activation, %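 (tested at 5 µM)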; GALR2-expressing cells, agonist activation read-out;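 active = above mean plus 3 SD of all compounds, about 5% in these data, not always enough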;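 also: 0% = vehicle buffer wells and 100% = reference agonist at full effect; tested in CHO reporter cells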
# INS promoter inh cell count: also measured in INS promoter inh; calls as there; normalized cell count, %; measured here: cell count, toxicity; reference of the scale not given here;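 cells exposed to compound for 48 h; stained nuclei by imaging scaled within each plate; lower means fewer cells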
# HSV augment primary fold: also measured in HSV augment; calls as there; fold increase; compound at 10 µM; measured here: primary screen fold increase 10 uM; tested in PC3 cells;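 GFP signal in the first replicate; 1 = infected wells without compound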
# Active calls of the source: *; i = inactive; ? = inconclusive; . = not tested or not shown.
SMILES	RGS16-Gao HTS	INS promoter inh	PKD1 inh	GALR2 ag	HSV augment	INS promoter inh cell count	HSV augment primary fold
O=[N+]([O-])c1ccc2c(c1Nc1ccccc1Cl)=NC1(CCCCC1)N=2	96.7	.	.	.	i	.	1.01
C=CCc1ccc(OCCn2cccc2C=O)c(OC)c1	107.0	0.0	-3.4	-2.2	i	129.9	1.12
CC(C)C(=O)Nc1ccc(NC(=O)c2ccccn2)cn1	111.4	38.5	-7.5	-0.5	i	126.1	0.873
COc1cccc(OC)c1-c1nn(-c2ncc(C(F)(F)F)cc2Cl)c(=O)o1	99.0	.	.	.	i	.	0.87
CC(C)N(N=Nc1ccc([N+](=O)[O-])cc1)C(C)C	91.4	.	-0.5	0.3	i	.	1.08
Cc1c(N=Cc2ccc[nH]2)c(=O)n(-c2ccccc2)n1C	93.2	18.8	3.9	-0.6	i	94.9	1.23
CCCCNC(=O)C1C2C=CC(C2)C1C(=O)O (stereo not given)	95.9	25.8	-7.6	0.6	i	113.6	0.99
O=C(NC1CCSC1=O)c1ccc(Cl)cc1 (stereo not given)	98.7	-21.7	1.1	-0.3	i	115.5	1.05
Cc1ccc(CN2CCCNC2=O)cc1	-41.0	-66.7	-3.3	-2.0	i	110.9	1.17
Cc1ccc(N2CC(C(=O)Nc3nccs3)CC2=O)cc1Cl (stereo not given)	91.3	.	5.3	-1.3	i	.	0.71
COc1cc2c(cc1OC)C1(C)N(CC2)C(C(C)=O)=NN1c1ccc(Cl)cc1 (stereo not given)	112.6	.	.	.	i	.	1.04
COc1ccccc1N1C(=O)C2C(C(=O)c3ccccc3)=NN(c3ccc(Br)cc3)C2C1=O (stereo not given)	89.7	.	.	.	?	.	.
O=C1CCCC2(O)C1C(c1cccc(Br)c1)NC(=O)N2Cc1ccccc1 (stereo not given)	223.8	.	-8.7	-1.3	i	.	1.09
COc1ccc(NC(=O)COC(=O)CCNS(=O)(=O)c2ccccc2)cc1OC	103.8	.	3.2	.	i	.	0.9
COc1ccccc1CNC(=O)CN1CCC(NC(=O)c2ccccc2F)CC1	103.3	5.9	5.7	0.1	i	61.0	1.09
COc1ccc(-n2c(=O)c3ccccc3n(CC(=O)NC3CCCCC3)c2=O)c(OC)c1	99.0	.	-9.7	0.2	i	.	0.88
N#C/C(=C\c1ccc(-c2ccccc2[N+](=O)[O-])o1)C(=O)N1CCOCC1	91.8	-87.5	-0.9	.	i	73.8	0.99
O=C(COC(=O)c1cc[n+]([O-])cc1)Nc1ccc([N+](=O)[O-])cc1	101.9	16.7	3.2	.	i	123.9	0.91
CSc1nc(C(=O)N2CCc3c([nH]c4ccccc34)C2c2ccccn2)cs1 (stereo not given)	73.3	.	-6.9	.	i	.	0.94
CC(C)c1nc(CNC(=O)c2cc(COc3c(F)cccc3F)on2)cs1	97.1	.	5.4	.	i	.	0.96
COC(=O)c1cc(Nc2cc(C)c3ccc(O)cc3n2)cc(C(=O)OC)c1	103.7	.	.	.	i	.	0.85
O=C(NCCc1ccccc1)C(=O)NC1CCCCC1	106.7	-9.6	2.4	1.0	i	51.5	0.92
O=C(Cn1cnc([N+](=O)[O-])n1)N/N=C/c1cc(Cl)ccc1O	98.4	.	6.5	.	i	.	0.97
Cc1cc(Nc2cccc([N+](=O)[O-])c2)c2cccc(C)c2n1	103.1	.	.	.	i	.	0.76
O=C(N1CCCCCC1)N1CCN(S(=O)(=O)c2ccccc2)CC1	102.1	-21.7	1.9	-1.0	i	98.3	0.95
COC(=O)C(O)(NC(=O)OCc1ccccc1)C(F)(F)F (stereo not given)	-16.8	.	3.9	-1.6	i	.	0.91
O=C(O)c1ccccc1C(=O)NNc1ccc(Cl)cc1Cl	102.5	.	-8.6	.	i	.	0.99
CCOC(=O)c1c(NC(=S)NCc2ccccc2)sc2c1CCN(C(=O)OCC)C2	99.2	.	.	.	i	.	1.12
Cc1cc(C)cc(CC2CC(=O)N(c3ccc(Cl)cn3)C2=O)c1 (stereo not given)	98.2	-333.3	-3.3	-2.0	i	128.2	1.05
CCCCC(=O)Nc1nnc(-c2ccco2)o1	101.6	.	2.4	.	i	.	1.02
CCOC(=O)c1ccc(N=c2sc(C(=O)OC)cc(=O)n2C2CC2)cc1	98.7	22.2	7.8	-0.2	i	154.0	0.76
CCOC(=O)Cn1c(CN2CCc3ccccc3C2)nc2c1c(=O)n(C)c(=O)n2C	102.9	14.3	-3.7	-0.6	i	124.2	0.93
CCOc1cc(CNCc2ccncc2)cc(Br)c1OCc1ccc(F)cc1	100.9	-54.2	-14.2	-4.4	i	114.2	0.89
CCOc1ccccc1NC(=O)NC1CC2CCCC(C1)N2Cc1nnnn1CCc1ccccc1 (stereo not given)	118.4	6.2	-15.5	0.5	i	97.9	0.84
Cc1nn(-c2ccccc2)c(C)c1C(=O)NCc1ccc(F)cc1	102.0	.	9.8	-1.3	i	.	0.77
O=C(c1ccco1)N1CCN(C(=O)N2CCOCC2)CC1	93.5	-92.9	-11.8	-1.1	i	80.4	0.98
O=C(O)CCC(=O)Nc1sc2c(c1C(=O)Nc1cccc3ccccc13)CCCCC2	286.3	.	-2.2	-1.3	i	.	1.17
O=C(O)CSC1CC(=O)N(c2cccc(Cl)c2)C1=O (stereo not given)	97.2	13.0	-10.9	-1.3	i	66.0	0.89
CCOC(=O)c1sc(N=NC2=C(O)CC(C)(C)CC2=O)c(C(=O)OCC)c1C	99.4	.	1.2	.	i	.	0.89
CN(C)S(=O)(=O)c1ccc(C(=O)NCc2ccccc2)cc1	101.6	-45.5	1.2	-2.3	i	82.0	1.02
CCOc1cc(S(=O)(=O)N2CCC(C(N)=O)CC2)ccc1F	100.7	-26.8	-2.3	-2.2	i	71.7	0.95
O=C(c1cc(-c2ccncc2)nc2ccc(Cl)cc12)N1CCN(C(=O)C2CCCO2)CC1 (stereo not given)	107.9	47.4	-3.8	-3.2	i	124.9	1.01
c1ccc(-c2ccc(-c3nc(-c4cccnc4)no3)cc2)cc1	89.8	-25.0	-4.8	-0.6	i	114.4	1.09
C=CCNc1ccc(F)c(F)c1N1CCCCCC1=O	99.2	0.0	4.2	-1.4	i	59.5	1.02
CC(C)(C)NC(=O)C(c1ccncc1)N(Cc1cccs1)C(=O)Cn1nnc(-c2ccc(F)cc2)n1 (stereo not given)	108.2	4.8	-3.9	-1.5	i	125.2	0.91
CSCC[C@H](NC(=O)NCCc1ccc(F)cc1)C(=O)O	92.2	.	-4.9	-2.7	i	.	0.99
O=C(NN1CCOCC1)NC12CC3CC(CC(C3)C1)C2	94.5	.	.	.	i	.	1.04
COc1ccnc(NCc2cccc(C(F)(F)F)c2)c1C#N	102.3	0.0	2.6	-1.9	i	112.4	0.68
Nc1nc2c(C(=O)N3CCOCC3)nnn2c2ccccc12	105.6	.	.	.	i	.	1.04
COc1cc(OC)cc(C(=O)NCCCN2CCOCC2)c1	106.8	18.8	2.1	-2.1	i	121.4	0.88

# (continued)
SMILES	RGS16-Gao HTS	INS promoter inh	PKD1 inh	GALR2 ag	HSV augment	INS promoter inh cell count	HSV augment primary fold
Cn1nc(CC(=O)Nc2cccc3ncccc23)c2ccccc2c1=O	100.0	.	3.6	-3.0	i	.	0.953
CCOC(=O)C1(CCc2ccccc2)CCN(C(=O)c2ccoc2)CC1	107.0	.	0.1	.	i	.	1.01
CC(OC(=O)CCN1C(=O)c2cccc([N+](=O)[O-])c2C1=O)C(=O)Nc1cc(Cl)cc(Cl)c1 (stereo not given)	103.0	21.6	-13.1	-0.3	i	95.0	0.92
Cc1cccc(Nc2nnc(SCC(=O)NCc3cccs3)s2)c1C	104.8	-11.1	-10.4	-0.6	i	46.9	0.93
CC1CCN(c2nc3nonc3nc2Nc2ccc(F)cc2)CC1	104.4	-43.6	4.3	.	i	133.3	0.83
CCCN1C(=O)c2cc(C(=O)NCCc3cccc(C)c3)ccc2C1O (stereo not given)	107.4	.	0.0	-2.8	i	.	0.92
Cc1cc(NC(=O)c2ccoc2C)no1	103.7	41.9	0.3	-2.3	i	182.4	0.93
N#CCc1nn(-c2ccc(F)cc2)c(N)c1C#N	100.8	.	-6.3	.	i	.	0.9
O=C(CN1CCN(Cc2ccccc2)C1=O)NCc1ccc(Cl)cc1	111.4	43.2	-7.0	-1.7	i	101.0	0.75
Cc1ccc(C(=O)CC2C(=O)N(c3ccccc3)C(=S)N2c2ccccc2)cc1 (stereo not given)	95.0	-46.7	8.2	-1.1	i	104.1	0.78
O=C(CCn1c(=O)c2sccc2n(CC(=O)OCc2ccccc2)c1=O)NCc1ccccc1	101.2	0.0	-4.6	2.0	i	111.0	0.94
O=C(CN1C(=O)CC(c2ccco2)Sc2ccccc21)NCc1ccc2c(c1)OCO2 (stereo not given)	89.6	.	5.9	-1.2	.	.	.
CSCCC1NC2(C(=O)Nc3c(C)cc(Cl)cc32)[C@@H]2C(=O)N(C3CCCC3)C(=O)[C@H]12 (stereo not given in full)	103.7	-35.7	-5.4	-1.8	i	79.7	0.59
C=CCn1c(COc2cccc3ccc(C)nc23)nnc1SCC(=O)O	105.4	-450.0	-5.3	-1.1	i	63.1	0.89
COc1cc(Br)c(CCNC(=O)Cc2ccccc2)cc1OC	103.2	.	-8.1	-0.4	i	.	0.98
Cc1c(Cl)cccc1NC(=S)N1CCC(C(N)=O)(N2CCCCC2)CC1	101.3	-56.2	-10.0	-1.2	i	96.8	0.9
C=CCNC(=O)CSc1n[nH]c(-c2cc(Cl)ccc2OC)n1	99.9	.	2.4	.	i	.	0.81
C=CCC(C=C)[N+]1(CC(=O)OC)CCCCC1 (stereo not given)	104.1	0.0	-3.9	.	i	115.8	0.86
CCOc1ccc(-n2nc3c(=O)n(CCN4CCCCC4)nc(C)c3c2C)cc1	100.6	38.5	-3.8	-1.1	i	162.2	0.97
Nc1cc(-c2ccc(Br)cc2)[nH]n1	55.8	0.0	-8.3	-1.5	i	96.3	0.93
CCCNC(=O)c1ccc(N(Cc2ccccc2)S(C)(=O)=O)cc1	24.7	-15.5	4.8	0.1	i	58.7	0.99
CCOc1ccc(CCNC(=O)c2ccc(C)c(N3CCCC3=O)c2)cc1OCC	117.9	-141.7	-2.1	.	i	68.2	1.08
Cc1cccc(NC(=S)N(c2ccccc2)C(C)C)c1C	101.9	.	-1.9	-0.2	i	.	1.04
CCOC(=O)c1ccc(N2C(=O)c3n[nH]c(C)c3C2c2ccco2)cc1 (stereo not given)	97.0	-9.1	-4.8	-3.2	i	113.2	1.01
C/C(=N\Nc1ccccc1)c1c(O)cc(C)oc1=O	107.8	-25.9	-0.1	.	i	101.7	1.14
CCOc1ncccc1C(=O)Nc1ccc(OC)c(S(=O)(=O)N2CCCCC2)c1	99.9	.	-0.1	.	i	.	0.85
Cc1cccc(CSc2nncc(=O)[nH]2)c1	99.1	-44.4	0.3	-0.5	i	46.3	0.97
COc1ccc(S(=O)(=O)NCC2CCCN(Cc3ccccc3C)C2)cc1 (stereo not given)	99.8	.	-5.5	.	i	.	1.04
O=C(Oc1cccc2ccccc12)c1ccncc1	104.7	-28.6	-2.4	-0.9	i	90.7	0.98
COc1cccc(C(=O)N(Cc2cc3cc(C)ccc3[nH]c2=O)C(C)C)c1	103.4	.	-8.8	-1.1	i	.	0.89
COC(=O)[C@H](CC(C)C)NC(=O)N1CCN(c2cccc(C(F)(F)F)c2)CC1	91.6	11.1	-0.9	-1.7	i	33.6	0.96
c1ccc2c(SCc3cn4cccnc4n3)ncnc2c1	115.7	0.0	0.1	1.5	i	155.6	0.97
CCOC(=O)/C=C1\SCC(=O)N1CC(=O)NCCOC	105.5	.	-4.4	.	i	.	0.91
CC(=O)c1cccc(NC(=O)CCNS(=O)(=O)c2cccc(C(C)=O)c2)c1	99.3	.	8.9	-0.2	i	.	0.98
CCCNC(=O)c1c(CSc2ccccc2)noc1C(=O)NCc1ccccc1	100.9	.	.	.	i	.	0.99
Cn1ccnc1C(=O)c1cc(SCC(=O)N2CCOCC2)nc2ccccc12	103.2	.	-9.6	.	i	.	1.05
O=C(CCC(=O)Nc1ccc(Cl)cc1Cl)N/N=C/c1ccc([N+](=O)[O-])o1	104.8	.	7.0	.	i	.	0.92
